Rango release inh = prevents RanGTP from dissociating the Rango-importin beta complex; Biochemical FRET Rango-importin beta, RanGTP-induced dissociation; hit rate 0.071% among 340,000; Potency, µM (top dose mostly 46.1 µM), inactives show at the highest dose activity change, negative = inhibition; AID 540253; O95149+P62826; active means falling FRET ratio curve, often poorly fitted, with flat reads before Ran was added; inconclusive means other falling curves, or compound fluorescence or quenching; inactive means flat or rising ratio curve;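 also: potency is read from the fitted curve at half-maximal effect; % of control where 0% means no effect; nearly all actives have a fitted effect of over 45% in size; -100% = wells without RanGTP and RCC1; the record marks most hits as doubtful in a second field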
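Two FRET readings bracket the reaction: one 5 min after compound meets Rango–importin beta, another 45 min after RanGTP-RCC1 (0.6 uM Ran, 0.2 uM RCC1, 2 mM GTP) is added. Only the second defines inhibition.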
GLA inh pH 4.5 = inhibitors of human alpha-galactosidase A at pH 4.5 | P06280 | purified enzyme, 4-MU-alpha-Gal fluorescence, pH 4.5 | activity change, negative = inhibition, % at 105 µM | 230,000 tested, under 10 active; inconclusive = small, poorly fitted or top-dose-only inhibition, or a rising curve; inactive = flat fitted curve, though single readings scatter; no compound was filed as active;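 also: 0% = full activity with enzyme and -100% = basal without enzyme; dose as in the result columns while the protocol names 77 µM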
Rango complex inh = Rango-importin beta binding inhibition; Q14974; Rango CFP/YFP FRET sensor + importin beta, 45 min; Potency, µM (doses to about 92.2 µM), for inactives: at the top dose inhibition of complex formation; hit rate 0.031% among 340,000; AID 540263; active = rising FRET ratio curve, often small or poorly fitted; inconclusive = mostly compound fluorescence or quenching in the first reads; inactive = flat curves in all reads;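 also: potency is read from the fitted curve at half-maximal effect; 0% = DMSO wells and 100% = buffer wells lacking importin beta; nearly all actives have a fitted effect of over 15% in size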
Target sequence (Q14974 whole entry, looked up): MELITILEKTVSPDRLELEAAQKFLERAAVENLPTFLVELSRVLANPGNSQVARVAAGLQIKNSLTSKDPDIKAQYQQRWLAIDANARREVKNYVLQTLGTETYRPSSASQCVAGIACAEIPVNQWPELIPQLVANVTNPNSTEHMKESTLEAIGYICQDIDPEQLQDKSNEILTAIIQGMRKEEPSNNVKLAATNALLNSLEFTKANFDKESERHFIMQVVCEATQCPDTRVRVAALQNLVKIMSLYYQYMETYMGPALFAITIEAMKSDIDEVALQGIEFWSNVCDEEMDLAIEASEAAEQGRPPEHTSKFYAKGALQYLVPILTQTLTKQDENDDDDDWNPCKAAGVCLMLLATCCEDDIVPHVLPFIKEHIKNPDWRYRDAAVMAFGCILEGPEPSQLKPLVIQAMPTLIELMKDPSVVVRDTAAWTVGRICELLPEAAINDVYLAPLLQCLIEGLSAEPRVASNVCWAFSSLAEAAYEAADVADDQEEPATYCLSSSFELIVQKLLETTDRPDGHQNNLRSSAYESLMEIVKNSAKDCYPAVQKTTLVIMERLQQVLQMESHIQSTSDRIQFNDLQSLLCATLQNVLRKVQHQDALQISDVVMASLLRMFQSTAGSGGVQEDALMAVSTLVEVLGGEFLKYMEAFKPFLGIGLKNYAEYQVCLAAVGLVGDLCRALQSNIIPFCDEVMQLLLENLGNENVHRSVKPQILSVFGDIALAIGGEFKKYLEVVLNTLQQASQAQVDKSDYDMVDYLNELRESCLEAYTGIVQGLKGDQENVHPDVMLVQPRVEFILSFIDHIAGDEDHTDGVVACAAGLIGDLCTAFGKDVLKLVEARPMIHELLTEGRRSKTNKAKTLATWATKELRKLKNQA
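FRET biosensor (snurportin 1 IBB flanked by EYFP and cerulean), 50 nM, with compound 5 min, then 0.125 microM importin beta in PBS, 1 mM DTT, 0.02% Tween-20, 0.1% BSA. CFP/YFP ratio read after 45 min at room temperature; pre-read flags interference.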
miR-21 reporter = raises the signal of a miR-21 reporter; HeLa miR-21 FLuc reporter, luciferase, 48 h; Potency, µM (top dose mostly 38.3 µM), inactives show top-dose reporter change, positive = more light; 340,000 tested, under 10 active; AID 2288; active = well fitted rising curve with a large enough effect; inconclusive = small, poorly fitted or top-dose-only effect; inactive = no such curve, though single readings can be large or run the other way;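 also: % of control where 0% means no effect; miR-21 action dims this reporter so a rising signal means less miR-21 action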
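Luminescence from a firefly luciferase reporter carrying a miR-21 binding site downstream, stably expressed under a CMV promoter in HeLa cells that make miR-21 endogenously, reports miRNA modulation after 48 h compound exposure up to approximately 40uM final.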
Starred values were filed as active, the others as inactive; ? = inconclusive; / = no result given; & = joins results of further samples.

miR-21 reporter,GLA inh pH 4.5,Rango release inh,Rango complex inh,compound
4%,-5,5%,-2.3%,CCCOc1ccc(C(=O)CCN2CCCCC2)cc1
/,/,-10%,2.8%,CCN(CC(=O)Nc1c(F)cccc1F)C(=O)c1ccc(N2C(=O)c3ccccc3C2=O)cc1
-1%,-11,3%,0.6%,CCc1ccc(NC(=O)CSc2nc3c(c(=O)n(C)c(=O)n3C)n2C)cc1
-1%,8,?,?,CCc1c(C)c(C#N)c2nc3ccccc3n2c1NCC1CCCO1 (stereo not given)
0%,-3,28%,0.9%,CS(=O)(=O)N1CCN(c2ccccc2NC(=O)c2ccc(-c3ccc(Cl)cc3Cl)o2)CC1
-44%,-1,3%,3.2%,CCN(CC)S(=O)(=O)c1ccc(Cl)c(C(=O)Oc2cccc(-c3cnc4ccccc4n3)c2)c1
2%,0,9%,0.2%,Cc1ccc(-n2c(SCC(=O)Nc3ccc4c(c3)OCO4)nnc2-c2ccoc2C)cc1
-2%,-5,2%,3.9%,CCCOc1ccc(N2C(=O)CC(N(CCC)C(=O)CCC(=O)O)C2=O)cc1 (stereo not given)
0%,?,-8%,?,COCCn1c(N)c(S(=O)(=O)c2cccs2)c2nc3ccccc3nc21
1%,-3,-4%,-3.5%,O=C(CC(C(=O)N1CCc2ccccc21)n1ccnc1)NCc1cccnc1 (stereo not given)
-7%,-3,-9%,11%,COc1ccc(N(Cc2cc3ccccc3[nH]c2=O)C(=O)C2CCCO2)cc1 (stereo not given)
-1%,-22,2%,4.8%,CCCCCC(=O)NNC(=S)NC(=O)c1ccccc1[N+](=O)[O-]
1%,/,-10%,0.3%,CC(=O)N1CCc2cc(S(=O)(=O)CCC(=O)NCc3ccc(C)o3)ccc21
-31%,3,16%,2.8%,Cc1c(/C=C/C(=O)c2ccc(C(C)C)cc2)cnn1C
15%,1,4%,1.6%,O=C(CSc1ccc(Cl)cc1)Nc1ccc(N2CCN(C(=O)c3ccco3)CC2)cc1
-53%,-2,20%,4.4%,COc1ccc(C(=O)NC(=O)Nc2ncccc2C)cc1
-1%,-7,18%,6.7%,CC(C)(C)NC(=O)C1CCN(S(=O)(=O)c2cccc(C(F)(F)F)c2)CC1
-55%,2,2%,3.4%,COc1cc(NC(=O)c2csc3c2CCCC3)ncn1
0%,-16,-9%,2.9%,COc1ccc(CC(NC(C)=O)C(=O)NC2CCN(C(=O)c3ccc(OC)c(OC)c3)CC2)cc1OC (stereo not given)
-18%,/,24%,1.9%,Cc1ccc(-c2cc(-c3ccc(F)cc3)n[nH]2)c(O)c1
-1%,-1,-7%,0.6%,COc1ccc(NC(=S)N(CCCN2CCN(C)CC2)Cc2cccs2)cc1
4%,-5,8%,1.5%,CCN(CC)S(=O)(=O)c1ccc(NC(=O)C2CCCN(C(=O)c3ccc(Cl)cc3)C2)cc1 (stereo not given)
-3%,9,-5%,4.1%,CC1CC(=O)Nc2ccccc2N1S(=O)(=O)c1ccc(C#N)cc1 (stereo not given)
17%,-11,5%,-4.0%,CC(=O)Oc1ccc2c(=O)c(Oc3ccccc3)coc2c1OC(C)=O
-5%,/,9%,-3.0%,O=C(O)Cn1c(=O)c2cccn2c2ccccc21
-20%,-2,-8%,2.7%,CCN1CCN(C(=O)c2cc3c(-c4ccc(Cl)cc4)nn(C)c3s2)CC1
-15%,/,-1%,?,CCN(CC)S(=O)(=O)c1ccc(N2CCN(C)CC2)c(NC(=O)Nc2ccccc2F)c1
-5%,-5,?,?,CCOC(=O)c1sc(NC(=O)CSc2nc(C)cc(C)c2C#N)c(C#N)c1C
-4%,3,6%,-0.9%,O=C(O/N=C(/c1ccccc1)c1ccncc1)c1ccccc1[N+](=O)[O-]
-9%,/,-6%,-2.0%,Cc1cc(C)nc(NN2C(=O)C=CC2=O)n1
/,/,-4%,-0.3%,O=S(=O)(c1cccc(Cl)c1)N1CCN(S(=O)(=O)c2ccc3c(c2)OCCO3)CC1
-7%,/,6%,-1.5%,CN(C)c1ncc(CN2CCC(C(=O)Nc3ccc(-n4cccn4)cc3)CC2)s1
1%,4,-13%,4.8%,O=C(O)c1cccc(N2CCCCS2(=O)=O)c1
-7%,7,2%,4.2%,CCC(=O)Nc1ccc(C(=O)OCC(=O)c2ccc(C)c([N+](=O)[O-])c2)cc1
1%,-12,-4%,-2.2%,COc1cccc2cc(C(C)N(CCCN3CCOCC3)C(=S)Nc3cc(C)ccc3C)oc12 (stereo not given)
0%,/,-1%,-3.7%,CC(C)C1Cc2[nH]c(=O)c(C(=O)O)cc2CO1 (stereo not given)
-10%,/,14%,1.7%,COc1ccc(CCC(=O)Nc2ccc3c(c2)OCO3)cc1
-1%,/,30%,-0.1%,CC(NC(=O)COc1ccc(/C=N/NC(=O)CO)cc1)c1ccccc1 (stereo not given)
3%,-4,-14%,?,COc1ccc(CC(=O)Nc2cccc3ncccc23)cc1OC
-8%,-2,-2%,-0.5%,Cc1cc(O)ccc1NC1=CC(=O)CC(C)(C)C1
-32%,2,-4%,2.7%,O=C(Cc1ccccc1F)Nc1nc2ccccc2[nH]1
3%,/,6%,-0.3%,Cc1ccc(C)c(S(=O)(=O)Nc2ccc(C(=O)NCC(c3ccco3)N3CCCCC3)cc2)c1 (stereo not given)
/,/,-7%,1.3%,Nc1cc(Cc2ccccc2)ccc1O
-13%,-3,-2%,-0.6%,Cc1ccccc1CSc1nnc(NC(=O)C2COc3ccccc3O2)s1 (stereo not given)
/,/,2%,0.5%,COc1ccc(NC(=O)N(C)C[C@H]2Oc3c(NC(=O)c4ccncc4)cccc3C(=O)N([C@H](C)CO)C[C@@H]2C)cc1
9%,/,4%,0.0%,CN(Cc1ccccc1)C(=S)NC(=O)c1cccs1
/,/,1%,-1.4%,CC(=O)C[C@@H](O)CC(=O)[C@H]1OC(=O)CC/C=C\Cc2ccccc21
2%,5,0%,-1.9%,O=S1(=O)N=C2CCCN2C(c2ccc(F)cc2)N1 (stereo not given)
14%,/,1%,0.2%,COc1cccc(CNC(=O)CCn2ccc3cc(S(=O)(=O)N4CCC(C)CC4)ccc32)c1
22%,-12,24%,-0.1%,COc1cc(C(=O)OCC(=O)Nc2sccc2C(N)=O)cc(OC)c1OC

4 entries from above, as labelled records:
> CN(C)c1ncc(CN2CCC(C(=O)Nc3ccc(-n4cccn4)cc3)CC2)s1
  miR-21 reporter = -7%; GLA inh pH 4.5 = /; Rango release inh = 6%; Rango complex inh = -1.5%

> CC(C)(C)NC(=O)C1CCN(S(=O)(=O)c2cccc(C(F)(F)F)c2)CC1
  miR-21 reporter = -1%; GLA inh pH 4.5 = -7; Rango release inh = 18%; Rango complex inh = 6.7%

> CCCOc1ccc(N2C(=O)CC(N(CCC)C(=O)CCC(=O)O)C2=O)cc1 (stereo not given)
  miR-21 reporter = -2%; GLA inh pH 4.5 = -5; Rango release inh = 2%; Rango complex inh = 3.9%

> COc1ccc(CC(NC(C)=O)C(=O)NC2CCN(C(=O)c3ccc(OC)c(OC)c3)CC2)cc1OC (stereo not given)
  miR-21 reporter = 0%; GLA inh pH 4.5 = -16; Rango release inh = -9%; Rango complex inh = 2.9%

New compounds follow:
miR-21 reporter,GLA inh pH 4.5,Rango release inh,Rango complex inh,compound
-17%,/,?,-2.7%,COc1cccc(OC)c1C(=O)Nc1ccc(N2CCN(C(=O)c3ccco3)CC2)cc1
26%,-3,1%,5.3%,COC(=O)c1ccc(NC(=O)c2ccccc2NS(=O)(=O)c2ccccc2)cc1
-20%,/,0%,0.5%,CS(=O)(=O)N(CC(=O)NCc1ccccc1)c1ccc(Cl)cc1
1%,-2,4%,2.0%,O=C1CN(C(=O)COC(=O)CCCOc2ccccc2)c2ccccc2N1
17%,-3,9%,0.2%,COc1ccc(N2C(=O)C3C(C2=O)C3(c2ccccc2)c2ccccc2)cc1 (stereo not given)
-5%,2,?,?,N#CC1=C(N)N2C(=C(C#N)C13CCN(Cc1ccccc1)CC3)Nc1ccccc12
-4%,-1,3%,0.1%,CCN(CC(=O)NC1CCS(=O)(=O)C1)C(=O)C(c1ccccc1)c1ccccc1 (stereo not given)
16%,/,-10%,-2.2%,Cc1ncc(CN2CCC(C(=O)Nc3cccc(-c4cscn4)c3)CC2)cn1
2%,7,?,?,Cc1ccc(-c2cc(-c3ccc(C)o3)nc(N)c2C#N)cc1
23%,/,?,?,CCOC(=O)C1=C(N)Oc2cc(O)ccc2C1c1ccc(F)cc1F (stereo not given)
-1%,-9,21%,1.3%,CCN(CC)S(=O)(=O)c1ccc(NC2c3ccccc3C(=O)N2Cc2ccc3c(c2)OCO3)cc1 (stereo not given)
-5%,2,-3%,-0.4%,O=C1c2ccccc2C(=O)N1c1cccc(-c2nc3ccccc3o2)c1
-1%,3,30%,-1.5%,COC(=O)CN1C(=O)C(O)(CC(=O)c2ccc(C)cc2)c2cc(Br)ccc21 (stereo not given)
-10%,4,1%,-0.1%,COCCNC(C)C(=O)Nc1ccc(Br)cc1 (stereo not given)
-1%,-2,25%,-6.1%,COc1ccc(NC(=O)CN(c2ccccc2)S(=O)(=O)c2ccccc2)c(OC)c1
/,/,2%,-1.4%,COc1ccc(NS(=O)(=O)c2ccc(Cl)c(NC(=O)c3ccccc3F)c2)cc1
-22%,/,-9%,2.9%,O=C(/C=C/c1ccc2c(c1)OCCCO2)c1ccc2ccccc2c1O
3%,-2,-7%,2.1%,CCC(=O)Nc1ccc(N2CCOCC2)c(S(=O)(=O)Nc2ccc(OC)cc2)c1
1%,6,-4%,1.3%,COc1cccc(Oc2coc3c(CN4CCOCC4)c(O)ccc3c2=O)c1
/,/,-11%,0.6%,NC(=O)c1ccc(N2CCCC2)nc1
2%,1,1%,0.0%,Cc1cc(NC(=O)C2CC(c3ccc(F)cc3)=NO2)n(-c2ccccc2)n1 (stereo not given)
/,/,-8%,-1.4%,CCN(CC(=O)NC1CCS(=O)(=O)C1)S(=O)(=O)c1cc(C)ccc1C (stereo not given)
0%,/,1%,4.5%,CCOc1cc(/C=C(/C#N)C(=O)Nc2ccc(OC)cc2)ccc1OCc1ccc(C(=O)O)cc1
-3%,-3,-2%,0.4%,COc1ccc(C(=O)NNC(=O)CSc2nnc(COc3ccc4ccccc4c3)n2C)cc1
?,/,-4%,1.4%,COc1ccc(C(=O)Nc2nc3ccccc3s2)c(OC)c1
-1%&-1%,/,-5%,2.5%,Cc1cc2c(cc1S(=O)(=O)NCc1ccccc1Cl)OCCN2C
-11%,5,20%,2.4%,Cc1csc2ncc(C(=O)NCc3ccc4c(c3)OCO4)c(=O)n12
-6%,/,?,0.4%,COC(=O)c1cc(S(=O)(=O)N(C)C2CCCCC2)cn1C
-4%,/,1%,0.5%,Cc1noc(C)c1CC(=O)NC1CC(C)(C)Cc2c1cnn2-c1ccccc1 (stereo not given)
2%,17,5%,0.0%,COc1ccc(OC)c(/C=N\NC(=O)CC(=O)NCCc2ccccc2)c1
-8%,21,-4%,-2.2%,CCCc1cc(-c2nc(-c3ccc(C)cc3)cs2)ccn1
-6%,-1,-12%,-0.1%,COc1ccc2c(c1)Cc1sc(NC(=O)c3cccnc3)nc1-2
-9%,6,-20%,?,COc1ccc(C(C(=O)NC2CCCC2)N(C(=O)c2snc(-c3ccc(F)cc3)c2N)c2ccc(F)cc2)cc1 (stereo not given)
17%,/,15%,-0.1%,COc1cccc(CNC(=S)Nc2cccc(Cl)c2C)c1
-55%,-13,?,?,CCN(CC)c1ccc2cc(C(C)=O)c(=O)oc2c1

Not all compounds are listed (hit frequency here may not be typical).
